# From PubChem
# MARV entry inh: qHTS for inhibitors of binding or entry into cells for Marburg Virus; 300,000 tested, 1.8% active; Marburg virus pseudotyped entry inhibition, cell reporter; control for the full effect not named in the record; about a third of the inactives were read at about 46 µM; Potency, µM (titrated, usually from 37.8 µM), for the others: at the highest dose activity change, negative = inhibition, most hits filed as inhibitors; active = well fitted inhibition curve with a large enough effect; inconclusive = small, poorly fitted or top-dose-only effect, or effect the other way; inactive = flat fitted curve, though single readings scatter; tested in HEK293 cells; about a fifth of its hits are not listed in these tables; note: % is set by controls: 0 for no effect and ±100 for the full control effect; luciferase read-out
# NS1 inh: qHTS Assay for Inhibitors of Influenza NS1 Protein Function. S. cerevisiae slowed by influenza A NS1, growth recovery by OD600. Potency, µM (highest dose often 46.1 µM), for inactives: at the highest dose activity, positive = more growth. 270,000 tested, 0.4% active; active means well fitted rising curve with a large enough effect; inconclusive means small, poorly fitted or top-dose-only effect; inactive means no such curve, though single readings can be large or run the other way; note: nearly all actives have a fitted effect of over 50% in size
#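 S. cerevisiae expressing influenza A NS1, grown in glucose, washed, then diluted 1:100 into pH 6.0 -URA galactose medium with 23 nl compound. Growth recovery read as OD600; NS1-free strain serves as control.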
# StopGo reporter: High Throughput Screening for Foot and Mouth Disease Virus Antivirals; Potency, µM (doses to about 57.9 µM), for inactives: at the top dose signal change, negative = less light; 410,000 tested, 1.2% active; human cells with a luciferase reporter of 2A StopGo recoding; control for the full effect not named in the record; active = well fitted falling curve with a large enough effect; inconclusive = small, poorly fitted or top-dose-only effect; inactive = no such curve, though single readings can be large or run the other way; tested in HEK293T cells; note: % is set by controls: 0 for no effect and ±100 for the full control effect; nearly all actives have a fitted effect of over 45% in size; luciferase light after 4 h
# SARS PLpro yeast: qHTS of Yeast-based Assay for SARS-CoV PLP | S. cerevisiae expressing SARS-CoV PLpro, growth rescue; control for the full effect not named in the record | Potency, µM (top dose mostly 32.9 µM), for inactives: top-dose activity, positive = growth rescue | AID 485353, 2010 | 330,000 tested, 0.19% active; active means well fitted rising curve with a large enough effect; inconclusive means small, poorly fitted or top-dose-only effect; inactive means no such curve, though single readings can be large or run the other way; note: 0% is about no effect; nearly all actives have a fitted effect of over 55% in size; growth read by luminescence after 48 h
# Lassa entry inh: qHTS for Inhibitors of binding or entry into cells for Lassa Virus. Lassa virus pseudotype entry inhibition, cell reporter; control for the full effect not named in the record. 300,000 tested, 1.2% active. AID 540256, 2011. Potency, µM (titrated, usually from 37.9 µM), for inactives: top-dose activity change, negative = inhibition, actives largely listed as inhibitors; active means well fitted inhibition curve with a large enough effect; inconclusive means small, poorly fitted or top-dose-only effect, or effect the other way; inactive means flat fitted curve, though single readings scatter; tested in HEK293 cells; note: % is set by controls: 0 for no effect and ±100 for the full control effect; nearly all actives have a fitted effect of over 50% in size; luciferase read-out
# RE007 growth inh: qHTS Assay for Inhibitors of the HIV-1 protein Vpr. Potency, µM (titrated, usually from 92.2 µM), without a hit: at the highest dose activity change, negative = less growth. 360,000 tested, 0.21% active. S. pombe RE007 Vpr strain, BacTiter-Glo ATP luminescence, 24 h; control for the full effect not named in the record. AID 651644, 2012; active = well fitted falling curve with a large enough effect; inconclusive = small, poorly fitted or top-dose-only effect; inactive = no such curve, though single readings can be large or run the other way;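 note: % is set by controls: 0 for no effect and ±100 for the full control effect; nearly all actives have a fitted effect of over 50% in size; the assay follows cell death caused by Vpr and the record does not say whether a fall means rescue or toxicity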
#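 Fission yeast RE007 carrying one integrated HIV-1 vpr copy, seeded at OD 0.01 in PMG+AL medium with 23 nL pinned compound. Grown 24 h at 30 degrees; viability read by BacTiter-Glo luminescence after 5 min.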
# Cruzain inh Det: qHTS Assay for Promiscuous and Specific Inhibitors of Cruzain (with detergent); AID 1478, 2009; purified cruzain, Z-FR-AMC fluorescence, 0.01% Triton; Potency, µM, without a hit: max response, negative = inhibition, most hits filed as inhibitors; Cruzipain (Trypanosoma cruzi), P25779; 200,000 tested, 0.43% active;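 note: plate controls were neutral wells for no effect and buffer without enzyme for full effect; nearly all actives have a fitted effect of over 40% in size; top concentration of the series not given in the record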
# Target sequence (P25779 123-467 limits assumed): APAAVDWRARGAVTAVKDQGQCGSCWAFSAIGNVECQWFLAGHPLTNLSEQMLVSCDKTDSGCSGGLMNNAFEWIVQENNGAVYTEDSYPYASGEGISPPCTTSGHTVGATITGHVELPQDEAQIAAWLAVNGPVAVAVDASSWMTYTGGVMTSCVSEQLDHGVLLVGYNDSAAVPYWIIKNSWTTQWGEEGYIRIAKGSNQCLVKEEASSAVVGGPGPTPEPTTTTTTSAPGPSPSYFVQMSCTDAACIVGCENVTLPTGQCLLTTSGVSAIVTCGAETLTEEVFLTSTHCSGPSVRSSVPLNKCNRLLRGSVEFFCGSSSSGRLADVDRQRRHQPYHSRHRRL
#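 In this qHTS format, compounds are incubated with 1.5 nM cruzain for 15 min at room temperature before 2 uM Z-FR-AMC is added. Release of AMC is followed at 360/450 nm, and progress is taken as the 60 s fluorescence difference.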
# Cruzain noTriton: qHTS Assay for Promiscuous and Specific Inhibitors of Cruzain (without detergent); Cruzipain (Trypanosoma cruzi), P25779; 200,000 tested, 2.3% active; AID 1476, 2009; Potency, µM, inactives show max response, negative = inhibition, actives largely listed as inhibitors; purified cruzain, Z-FR-AMC fluorescence, no detergent;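 note: plate controls were enzyme without inhibitor for no effect and buffer without enzyme for full effect; nearly all actives have a fitted effect of over 40% in size; top concentration of the series not given in the record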
#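 Detergent-free condition (0.00005% Triton X-100) in acetate buffer pH 5.5 with DTT. 1.5 nM enzyme and compound were pre-mixed 15 min, then 2 uM Z-FR-AMC substrate added; reaction progress from fluorescence change between first and third reads (60 s).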
# Numbers without * were called inactive; ? = inconclusive; . = no result given; & = joins results of further samples; [ ] = remark or other dose. Unless noted, calls come from the whole dose curve; as a rule, active = well fitted curve in the direction sought with a large enough effect; inconclusive = small, poorly fitted or top-dose-only effect, or another doubt; inactive = no such curve, though single readings can be large; an effect the other way counts as inactive or inconclusive. Potency is the fitted concentration of half-maximal effect. Compounds were not picked by outcome; about 4.7% have a hit in one of these screens.
SMILES,MARV entry inh,NS1 inh,StopGo reporter,SARS PLpro yeast,Lassa entry inh,RE007 growth inh,Cruzain inh Det,Cruzain noTriton
Cc1ncsc1CCOC(=O)C1C2CC3CC(C2)CC1C3 (centres undefined),9%,-12%,?,5%,?,5%,-6.3%,?
O=C(O)CCCC(=O)Nc1ccc(C(=O)N2CCCCC2)c(Cl)c1,7%,-3%,-6%,5%,7%,-9%,3.6%,-1%
O=C(Cn1c(=O)oc2cc(S(=O)(=O)N3CCCCCC3)ccc21)NC1CCCCC1,2%,1%,-2%,-5%,.,30%,2.7%,?
O=[N+]([O-])c1cc([N+](=O)[O-])c(Oc2cncc(Cl)c2)cc1NC1CCCCCCC1,.,-1%,-20%,-2%,.,-6%,.,.
Cc1cc(=O)oc2cc(OCC(=O)NCc3ccncc3)ccc12,14%,-4%,14%,1%,-6%,12%,-4.0%,7%
COc1ccc(-c2cc(COc3ccccc3)on2)cc1,?,.,20%,-2%,?,2%,.,.
CC(C)OC(=O)CC(=O)CSc1nc2c(cc1C#N)CCC2,-1%[46.1 µM],2%,17%,2%,0%,12%,-8.8%,-4%
COc1ccc(C(=O)NCCc2c[nH]c3ccccc23)cc1[N+](=O)[O-],11%,-3%,-30%,0%,-8%,-6%,.,.
CCC(=O)N1N=C(c2cccc(NS(C)(=O)=O)c2)CC1c1cccs1 (centres undefined),5%,-9%,0%,2%,-7%,-21%,-3.7%,-2%
N#CC(C#N)=CNc1cccnc1,.,5%,-15%,0%,.,5%,.,.
COc1ccc(OC)c(CN2CCN(CC(=O)Nc3ccccc3C(=O)NC3CC3)CC2)c1,-8%,.,0%,2%,?,-16%,.,.
Brc1ccc(-c2nnc(Cc3ccccc3)o2)cc1,.,-35%,87%[activator],2%,.,-12%,.,.
Cn1c(SCc2cccc(F)c2)nnc1-c1ccccn1,4%,-21%,65%[activator],0%,?,18%,0.5%,11%
Cc1ccc(NC(=O)c2sccc2-n2cccc2)c(C)c1,2%,-73%,1%,-11%,-14%,-17%,-8.1%,-5%
COc1ccc(Nc2nc3c(S(=O)(=O)c4ccccc4)nnn3c3ccc(Cl)cc23)cc1,?,.,-26%,.,.,.,-1.0%,-1%
O=C(O)c1cc(-c2ccncc2)nc2ccc(S(=O)(=O)N3CCOCC3)cc12,1%,-6%,28%,1%,-1%,17%,0.4%,5%
CCN(CC(=O)Nc1c(F)cccc1F)C(=O)CNC(=O)c1cccs1,-1%,.,-11%,10%,9%,8%,.,.
O=C(CN1CCCN(Cc2ccccc2Cl)S1(=O)=O)Nc1ccc2c(c1)OCCO2,.,.,14%,.,-22%[46.1 µM],.,-2.7%,14%
O=C(Cn1cc(C(=O)c2ccco2)c2ccccc21)NC1CC1,11%[46.1 µM],-1%,2%,-1%,?,1%,.,.
COc1ccc2c(CC(=O)N(C)CC3COc4ccccc4O3)coc2c1 (centres undefined),-8%,-52%,-10%,-26%,-3%,-1%,-1.8%,10%
COc1cccc(Cn2nc(C(=O)O)c3ccccc3c2=O)c1,-3%,.,-21%,-4%,?,-1%,.,.
C=CCc1cccc(CNc2nc3ccccc3n2CCN2CCOCC2)c1O,14%,-21%,-12%,-1%,?,-4%,-4.1%,-5%
Cc1ccc([N+](=O)[O-])cc1N/C=C1\CCc2ccccc2C1=O,9%,-4%,24%,5%,26%,4%,0.7%,-6%
Cc1c(C(=O)N2CCCC2)sc(NC(=O)c2ccccc2)c1C#N,-1%,24%,.,5%,2%,-4%,-7.2%,-2%
COCCNC(=O)C(C(=O)c1ccc(F)cc1)n1cc(C)ccc1=O (centres undefined),-19%,1%,-2%,0%,-1%,4%,.,.

# The last 2 entries of the part before open the next one:
SMILES,MARV entry inh,NS1 inh,StopGo reporter,SARS PLpro yeast,Lassa entry inh,RE007 growth inh,Cruzain inh Det,Cruzain noTriton
Cc1c(C(=O)N2CCCC2)sc(NC(=O)c2ccccc2)c1C#N,-1%,24%,.,5%,2%,-4%,-7.2%,-2%
COCCNC(=O)C(C(=O)c1ccc(F)cc1)n1cc(C)ccc1=O (centres undefined),-19%,1%,-2%,0%,-1%,4%,.,.
CC(=O)Nc1ccn(Cc2c(F)cccc2Cl)n1,15%,-10%,24%,3%,23%,2%,-0.2%,-30%
Cc1c(C(=O)NC2CCOC2)oc2c(F)cccc12 (centres undefined),.,-4%,66%[activator],-1%,.,5%,.,.
COc1ccc2oc(=O)c(N3C(=O)c4ccccc4C3=O)cc2c1,.,6%,-16%,-3%,.,-11%,.,.
COc1ccc(-c2cc3ccc(O)c(CN4CCC(C)CC4)c3oc2=O)cc1OC,.,.,13%,.,3%[46.1 µM],.,1.6%,-2%
CCOc1ccc(NC(=O)CC2NCCNC2=O)cc1 (centres undefined),2%[46.1 µM],-1%,17%,3%,?,13%,2.0%,-7%
Cc1cc(/C=N/NC(=O)Cn2c3ccccc3c(=O)c3ccccc32)c(C)n1-c1ccccc1,?,25%,3%,-4%,-17%,-1%,-3.6%,16µM*
O=C(CSc1ccccc1)N1CCc2ccccc21,5%[46.1 µM],-13%,18%,-7%,-1%,7%,-1.0%,-10%
CCSC1=NCCN1C(=O)c1ccc(S(=O)(=O)N(CC)CC)cc1,10%[46.1 µM],.,-12%,-3%,?,-18%,.,.
CCCC(=O)Oc1ccc(C2NC(=O)c3ccccc3O2)cc1OC (centres undefined),-2%[46.1 µM],1%,0%,3%,7%[46.1 µM],-18%,.,.
CCn1c(SCc2cccc(F)c2)nc2c(c1=O)SCC2,-23%[46.1 µM],.,?,-12%,15%,27%,.,.
CCOc1ccc(-n2c(SCC(=O)Nc3ccc(C(=O)O)cc3)nc3ccccc3c2=O)cc1,.,14%,2%,1%,.,-17%,.,.
CCOC(=O)CC1C(=O)NCCN1C(=S)Nc1ccccc1 (centres undefined),-18%,?,-17%,8%,3%,-7%,1.5%,-17%
O=C(CNC(c1ccccc1)c1ccccc1)Nc1ccccc1-c1ccccc1,?,-6%,?,-1%,?,-1%,-4.3%,-3%
COc1ccc(-c2nc3n(n2)C(c2ccncc2)C(C(N)=O)=C(C)N3)cc1 (centres undefined),7%,3%,3%,5%,2%,-3%,-6.3%,-2%
Cc1ccccc1Cn1ccc(NC(=O)c2cnn3c2NC(c2ccccc2)CC3C(F)(F)F)n1 (centres undefined),-17%,15%,0%,-3%,-19%,-9%,-3.4%,-10%
O=C1c2ccccc2NC2(CCCC2)N1NS(=O)(=O)c1ccccc1,-19%[46.1 µM],.,-17%,-2%,3%[46.1 µM],-17%,.,.
C=CCc1c(C)nc(C)nc1N/N=C/c1ccccc1,-4%,-11%,-6%,14%,5%,20%,-10%,-5%
CCOC(=O)N1CCN(C(=O)CCCCCn2c(=S)[nH]c3ccsc3c2=O)CC1,9%[46.1 µM],.,11%,0%,-13%,-6%,.,.
O=C(CSc1nnc(COc2ccccc2Cl)o1)NC(=O)NCc1ccco1,10%[46.1 µM],2%,0%,0%,29%,-2%,.,.
COc1ccc(-c2csc(Nc3ncccc3C)n2)cc1OC,1%,-12%,25%,-4%,?,1%,-3.1%,?
CCOC(=O)c1ccc(N2C(=O)CC(N3CCOCC3)C2=O)cc1 (centres undefined),0%[46.1 µM],-96%,-5%,-22%,?,35µM*,5.2%,3%
COc1cccc(C(=O)Nc2cccc3c2ccc2cccn23)c1,-17%[46.1 µM],.,-14%,-1%,-16%,-7%,.,.
c1ccc2c3c(cc(N4CCOCC4)c2c1)OC1(N2CCOCC2)CCCCC1O3 (centres undefined),0%,-10%,.,10%,-17%,-6%,-22%,?
O=C(CCc1cccc(Cl)c1)NC1CCCN(Cc2ccccc2F)C1 (centres undefined),?,-9%,-6%,-2%,?,-19%,.,.
Cc1ccc(C2NCCS2)cc1 (centres undefined),-1%[46.1 µM],.,?,1%,-1%[46.1 µM],5%,.,.

# (cont.)
SMILES,MARV entry inh,NS1 inh,StopGo reporter,SARS PLpro yeast,Lassa entry inh,RE007 growth inh,Cruzain inh Det,Cruzain noTriton
CCCCOC(=O)c1c(C)oc2ccc(NS(=O)(=O)c3ccc4c5c(cccc35)C(=O)N4)cc12,?,17%,-18%,3%,?,8%,-9.2%,-29%
O=C(CN1CCN(S(=O)(=O)N2CCCCCC2)CC1)Nc1ccc(F)cc1,-2%[46.1 µM],-15%,-24%,-2%,-24%,-11%,.,.
Cc1sc2ncnc(Sc3nnnn3-c3ccccc3)c2c1C,?,-17%,.,-6%,?,-7%,1.6%,3%
CCn1nnc(NC(=O)c2cc(Cl)c(OC)c(Cl)c2)n1,-1%,-24%,-6%,-3%,?,4%,-2.3%,3%
Cc1[nH]c2c(C)cccc2c(=O)c1CN1CCCCCC1,.,3%,-3%,-1%,.,-2%,.,.
CC(C)Oc1ccc(C(=O)OCC(=O)c2ccc[nH]2)cc1,?,.,3%,-5%,-11%,?,.,.
O=C(NN=C1C2CC3CC(C2)CC1C3)c1ccncc1,10%,18%,4%,-1%,13%,4%,2.9%,-4%
COc1ccccc1CNC(=O)c1ccc2c(c1)nc(C)n2-c1cccc(C)c1,.,.,6%,.,-13%[46.1 µM],.,-0.9%,-5%
C=CCn1c(SCC(=O)Nc2ccc(N3CCOCC3)cc2)nnc1-c1ccco1,2%[46.1 µM],-4%,8%,1%,-1%[46.1 µM],-9%,.,.
CC(C)(C)c1ccc(C(=O)N2CCC(NC(=O)c3ccccc3)CC2)cc1,1%[46.1 µM],-2%,-3%,-4%,-5%[46.1 µM],15%,.,.
C=CCn1sc(=N)c(C#N)c1N,9%,0%,.,6%,18%,-6%,-5.5%,7%
CCOc1ccc(NC(=S)NC(=O)Cc2ccccc2)cc1,.,-2%,36%[activator],15%,.,-18%,.,.
COc1ccc(Cl)cc1NC(=S)N1CCN(C(=O)C2CCCO2)CC1 (centres undefined),.,8%,0%,0%,.,5%,.,.
c1ccc(-c2ccc(-c3ccccn3)nn2)nc1,0%&-1%,-115%,.,?,.,.,-2.1%,-10%
